STK33 inh = human STK33 kinase inhibition; Q9BYT3; purified STK33, MBP phosphorylation, ADP-Glo luminescence; inhibition, % at 10 µM; hit rate 0.073% among 320,000; AID 2661;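 active = inhibition at or above 25%, using the most active replicate where run in duplicate; inactive = inhibition below 25%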
Target sequence (Q9BYT3 whole entry, looked up): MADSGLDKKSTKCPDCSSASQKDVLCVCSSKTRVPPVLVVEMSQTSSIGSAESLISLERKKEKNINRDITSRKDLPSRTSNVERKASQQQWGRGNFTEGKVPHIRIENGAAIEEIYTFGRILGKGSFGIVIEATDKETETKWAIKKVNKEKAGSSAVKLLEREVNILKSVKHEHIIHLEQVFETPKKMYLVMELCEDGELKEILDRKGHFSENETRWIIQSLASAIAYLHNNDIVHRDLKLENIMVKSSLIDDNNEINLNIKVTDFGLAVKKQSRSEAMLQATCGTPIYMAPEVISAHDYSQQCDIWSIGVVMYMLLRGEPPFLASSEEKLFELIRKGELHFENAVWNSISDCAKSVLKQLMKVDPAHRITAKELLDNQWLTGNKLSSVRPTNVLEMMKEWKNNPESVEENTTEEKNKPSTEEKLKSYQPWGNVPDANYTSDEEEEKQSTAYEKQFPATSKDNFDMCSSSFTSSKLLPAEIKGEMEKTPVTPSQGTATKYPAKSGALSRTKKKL
An asterisk follows results filed as active.

SMILES	STK33 inh
COc1ccc(CCNC(=O)Cc2cccs2)cc1OC	-1.5
COc1ccc(Cl)c(Cn2c(NCCCO)nc3c2c(=O)n(C)c(=O)n3C)c1	0.0
CCNc1nc(NCC)nc(N/N=C/c2ccc(N(C)C)cc2)n1	1.9
CN1C(=O)NC2(O)C(=O)c3ccccc3C12O (configuration not stated)	0.2
COc1ccc(CNC(=O)COC(=O)/C=C/c2ccc(S(=O)(=O)N3CCOCC3)cc2)cc1	0.0
O=C(c1cnn2c(C(F)(F)F)cc(-c3ccccc3)nc12)N1CCCc2ccccc21	-1.1
Cc1cccc(CCNC(=O)c2cc(S(=O)(=O)N3CCCCC3)c[nH]2)c1	0.6
O=C(NC1CCCCC1)C(c1c(F)cccc1Cl)N(C(=O)c1csnn1)C1CC1 (configuration not stated)	-1.5
CCc1[nH]nc2c1C1(C(=O)N(Cc3ccccc3)c3ccccc31)C(C#N)=C(N)O2 (configuration not stated)	2.0
COc1ccc(-n2c(C)c(C(=O)O)c3cc(OC)c4ccccc4c32)cc1	-1.5
O=C(CN1CCN(S(=O)(=O)c2ccccc2C(F)(F)F)CC1)NCc1cccs1	0.7
NC(=O)C1CCN(C(=O)COc2ccc3ccccc3c2)CC1	0.8
O=C1C(Cl)=C(N2CCCC2)C(=O)N1c1ccccc1F	0.1
CCn1c(COc2cccc(C)c2)nc2ccccc21	-1.0
COc1ccc(CC2(CO)CCN(C/C=C/c3ccccc3OC)CC2)cc1	-1.1
CCOc1ccc(S(=O)(=O)N2CCCC(C(=O)N3CCCC3)C2)cc1 (configuration not stated)	-2.0
O=C(c1ccc2c(c1)OCO2)N1CCN(c2ccc(C(F)(F)F)cn2)CC1	-1.9
COc1ccc(-c2nc3n(c2Br)CCC3)cc1	1.2
Cc1ccc(OCCC(=O)OCC(=O)NC(=O)c2ccccc2)cc1	-0.5
COC(=O)c1ccccc1Oc1ccc(NC(=O)CCCl)cc1	0.1

Some of these compounds in order of the STK33 inh value, highest first:
canonical_smiles,STK33 inh
COc1ccc(-c2nc3n(c2Br)CCC3)cc1,1.2
NC(=O)C1CCN(C(=O)COc2ccc3ccccc3c2)CC1,0.8
O=C1C(Cl)=C(N2CCCC2)C(=O)N1c1ccccc1F,0.1
Cc1ccc(OCCC(=O)OCC(=O)NC(=O)c2ccccc2)cc1,-0.5
COc1ccc(CC2(CO)CCN(C/C=C/c3ccccc3OC)CC2)cc1,-1.1
O=C(c1ccc2c(c1)OCO2)N1CCN(c2ccc(C(F)(F)F)cn2)CC1,-1.9
CCOc1ccc(S(=O)(=O)N2CCCC(C(=O)N3CCCC3)C2)cc1 (configuration not stated),-2.0

Next part
SMILES	STK33 inh
COCCn1c(SCC(=O)NNC(=O)Cc2ccccc2)nc2ccccc2c1=O	-2.8
Cc1c(Cl)cccc1NC(=O)NCCCN1CCCC1=O	-2.0
CCOC(=O)N1CCC(Nc2ccc3nnc(-c4ccccc4)n3n2)CC1	-1.0
O=C(NC(=S)Nc1ccc(N2CCOCC2)cc1)c1cccc([N+](=O)[O-])c1	0.5
CN1CCN(C(=O)C2=C[C@@H](c3ccc(C(F)(F)F)cc3)C[C@@H](OCCCCO)O2)CC1	0.0
Cc1ccc(SCC(=O)OCC(=O)NCCCc2ccccc2)cc1	0.0
Cc1cc(C)cc(NC(=O)CS(=O)(=O)c2cccc3nsnc23)c1	-0.4
CN(Cc1ccccc1F)c1ccc(S(=O)(=O)N2CCCC2)cn1	-2.4
Cc1ccc(S(=O)(=O)Nc2ccc3c(c2)nc(CCN2CCCC2)n3C)cc1	0.9
Nc1nc2nc(-c3ccc(OCc4ccccc4)cc3)cc(C(F)(F)F)n2n1	-1.1
COc1cccc(NC(=O)N2CCCC2C(=O)NC2CC2)c1 (configuration not stated)	0.3
CCCC(C)c1nc(C(N)=O)c2[nH]c(=O)n(-c3ccc(OC)c(OC)c3)c2n1 (configuration not stated)	-1.6
CC(NC(N)=O)C(=O)OCC(=O)c1ccc(-c2ccccc2)cc1 (configuration not stated)	-1.0
COCCCNC(=O)Cn1c(=O)n(CCCCCC(=O)NCc2ccc3c(c2)OCO3)c(=O)c2sccc21	-1.4
Cc1ccc(Nc2nc(-c3ccc(S(=O)(=O)N4CCOCC4)cc3)cs2)cc1	-0.6
CC1(C)CC2CC(C)(CN2S(=O)(=O)c2ccc(C(=O)Nc3ccc(Cl)c(S(=O)(=O)N4CCOCC4)c3)cc2)C1 (configuration not stated)	0.4
COc1ccc(CCNC(=O)c2ccc3c(c2)SC2=NS(=O)(=O)CCN23)cc1	1.0
CSc1ncccc1C(=O)N(C)CC(=O)Nc1ccc(Cl)cc1	-1.7
Cc1ccc(O)c(NC(=S)NC(=O)c2ccccc2Cl)c1	-0.2
C/C(Cn1cnc([N+](=O)[O-])n1)=N\NC(=O)c1cccc(F)c1	0.2
COc1ccc(CN2CCCC(C(=O)c3ccc4c(c3)OCO4)C2)c(F)c1 (configuration not stated)	1.9
COc1c2n(C)ccc3c-2n(c(=O)c1=O)c1ccccc31	-0.6
Cc1ccc2ncnc(NCCCCCC(=O)O)c2c1	0.6
COc1ccc(N2C(=O)CCC(C(=O)O)C2c2ccccc2OC)cc1 (configuration not stated)	0.0
CCOC(=O)c1cc(-c2ccccc2)n(CC(=O)Nc2ccc(OCC)cc2)c1C	0.0
CC1(c2ccccc2)NC(=O)N(CC(=O)Nc2ccc(S(=O)(=O)Nc3ncccn3)cc2)C1=O (configuration not stated)	-2.5
Cc1cccc(C(=O)NCCN2CCN(c3ccccc3)CC2)c1	-1.2
COc1ccc(NS(=O)(=O)c2cccc(C(=O)OCC(=O)NC3CC3)c2)cc1	-1.0
Cc1ccc(NC(=O)CSc2ncn[nH]2)cc1	0.5
COCCCNc1nc(-c2ccncc2)nc2ccccc12	5.7
N#Cc1ccc(-c2cccs2)nc1SCc1cccnc1	-0.4
OC1CN=C2C=CC=CN2C1 (configuration not stated)	0.1
CCSc1nnc(NC(=O)CCc2ccccc2)s1	-2.1
COc1ccc(-n2ccnc2CN2CCCC(CO)(Cc3cccc(OC)c3)C2)cc1 (configuration not stated)	1.1
O=C(CSc1nnc(-c2cccnc2)n1CCN1CCCCC1)Nc1cccc(Cl)c1	-3.9
CCOC(=O)Cc1csc(SCc2nc3ccccc3c(=O)[nH]2)n1	-0.3
COCCn1c(Br)nc2c1c(=O)n(C)c(=O)n2C	1.1
Cc1cc(-c2nnc(SCC(=O)Nc3nc(-c4ccccc4)cs3)o2)no1	1.3
NC(=O)c1cc([N+](=O)[O-])ccc1NCc1ccc(N)cc1	-0.7
O=S(=O)(NCc1cccnc1)c1ccc(Cl)c(Cl)c1	-0.3
CC(=O)Nc1cc2c3c(c1)CCN3C(=O)CC2	-0.8
CC1(C)CC(=NO)CC(C)(C)N1	1.5
Cc1ccc(C)c(NC(=S)NNC(=O)c2csc3c2CCC(C)C3)c1 (configuration not stated)	0.6
COc1ccc(OC)c(S(=O)(=O)N2CCC(C(=O)Nc3ccccc3)CC2)c1	-0.3
O=C(CN(CCc1ccccc1)C(=O)CNS(=O)(=O)c1ccc(F)cc1)NCc1ccco1	-3.0
O=C(NCC1CCCO1)c1ccc(NC(=O)C2CCCCC2C(=O)O)cc1 (configuration not stated)	0.7
COc1ccc(C(=O)CCc2nc3ccccc3s2)cc1	-2.3
COc1cc(CNC(C)(C)C)ccc1OCC(=O)NC(C)(C)C	-1.0
N#Cc1c(NC(NC(=O)c2ccco2)C(=O)c2ccccc2)sc2c1CCCC2 (configuration not stated)	0.2
O=S(=O)(NCc1ccccn1)c1cc(OCC(F)(F)F)ccc1OCC(F)(F)F	0.1
Next section
SMILES	STK33 inh
N=c1c2c3c(sc2ncn1N)CCCC3	-1.8
O=C(Nc1cccc(Cl)c1)c1ccc(Cn2cc(Cl)cn2)cc1	-0.4
COc1ccc(OC)c(C2C(C(=O)c3cccs3)=C(O)C(=O)N2c2cc(C)on2)c1 (configuration not stated)	0.2
Cc1nn(CC(=O)N2CCCCC2)c(=O)c2nn(-c3ccccc3)c(C)c12	-0.5
CCOC(=O)Cn1nc(NC(=O)COc2ccc(F)cc2)cc1C	-0.7
Cc1cc(C)n2nc(C(=O)OCC(=O)N(C)CC(=O)Nc3ccccc3Cl)nc2n1	-1.4
Cc1cccc(OCc2nnc(SCC(=O)NC3CCCC3)n2C)c1	-0.2
COCCn1c(=O)[nH]c(=O)c2cc(C(=O)c3cc(OC)ccc3O)cnc21	-0.8
CCC(C(=O)O)n1nnc(-c2ccc(-c3ccc(OC)cc3)cc2)n1 (configuration not stated)	5.1
c1cnc(NC2C3CC4CC(C3)CC2C4)nc1 (configuration not stated)	-1.4
Cn1cccc1C(=O)NC(=O)COC(=O)c1cc(Cl)ccc1[N+](=O)[O-]	-1.1
Cc1cc(C)c2oc(C(=O)Nc3ccc(S(=O)(=O)Nc4nccs4)cc3)cc(=O)c2c1	1.3
COc1cccc(C(=O)NCCN2C(=O)S/C(=C/c3cccs3)C2=O)c1OC	-0.2
O=C(NC(Cc1ccc2c(c1)OCO2)C(=O)NC(Cc1ccccc1)C(=O)O)c1ccccc1 (configuration not stated)	-1.2
Cc1ccc(-c2nnn(Cc3nc(N)nc(N4CCOCC4)n3)n2)cc1	-1.4
Cc1ccc2cc(CCNS(=O)(=O)c3ccc(F)cc3)c(=O)[nH]c2c1C	1.8
CCCC[C@@H]1CCCO[C@@](C(=O)NCc2cc(C)n(C)n2)(C(F)(F)F)C1	0.6
Fc1ccc(NCc2nnc(SCc3nnc(-c4ccccc4)o3)n2Cc2ccccc2)cc1	-1.4
COc1ccccc1NC(=O)COc1ccc(-c2nn(C)c(=O)c3ccccc23)cc1	-0.3
COCCN1Cc2cccc(C(=O)Nc3cc(OC)ccc3OC)c2C1=O	-0.4

In a second layout: results already given
> COc1cccc(C(=O)NCCN2C(=O)S/C(=C/c3cccs3)C2=O)c1OC
  STK33 inh = -0.2
> O=C(NC(Cc1ccc2c(c1)OCO2)C(=O)NC(Cc1ccccc1)C(=O)O)c1ccccc1 (configuration not stated)
  STK33 inh = -1.2
> Cc1ccc(-c2nnn(Cc3nc(N)nc(N4CCOCC4)n3)n2)cc1
  STK33 inh = -1.4

Further entries follow.
SMILES	STK33 inh
C/C(CCc1ccccc1)=N\NC(=O)c1ccccc1	-1.7
O=C(CNCc1ccccc1)Nc1cccc(Cl)c1Cl	-1.0
CCC(=O)N(Cc1ccc2c(c1)OCO2)Cc1cc2cc(OC)ccc2[nH]c1=O	0.5
CN1CC=C2C(C#N)=C(N)C(C#N)(C#N)C(Cc3ccccc3)C2C1 (configuration not stated)	-0.4
O=C(Nc1nnc(CCN2CCCCC2)s1)c1ccccc1Cl	-0.5
NC(=O)c1ccccc1NC(=O)CSc1nc2c(c(=O)[nH]1)CCCC2	-0.5
O=C(C1CCN(S(=O)(=O)c2cccnc2)CC1)N1CCN(c2ccc(Cl)cc2)CC1	-1.0
OC1(c2ccc(F)cc2)CCN(Cc2cccnc2)CC1	-0.8
CCOc1ccc(C2C(C#N)=C(N)SC(N)=C2C#N)cc1OCC	0.5
COc1ccccc1C(=O)NCCC(=O)NCCc1ccccc1	0.9
NC(=O)COC(=O)c1sc2ccccc2c1Cl	0.6
CCOc1ccc(S(=O)(=O)N2CCCCC2)c2ccccc12	-0.3
CCc1ccccc1NC(=O)c1ccc(NCCc2ccccc2)c([N+](=O)[O-])c1	-2.4
CCOC(=O)C1=C(O)CSC1=Nc1ccccc1	-0.9
Cc1c(-c2ccccc2)[n+](=O)c(-c2ccco2)c(C)n1[O-]	-0.1
CC(C)c1ccc(/C=N/N2CCCCC2)cc1	-0.8
CCC(C)Nc1cc(C)nc2ncnn12 (configuration not stated)	0.9
C/C(=N\NC(=O)C(N)=O)c1ccc(NC(=O)c2cccs2)cc1	-0.2
CCc1nnc(NS(=O)(=O)c2ccc(NC(=O)c3cccc(OC(F)(F)C(F)F)c3)cc2)s1	-1.0
COc1ccccc1CCc1nnc(CCC(=O)NC(C)Cc2cccs2)o1 (configuration not stated)	-0.3
Cc1cc(C(=O)NC2CCCCCCC2)ccc1[N+](=O)[O-]	-1.4
Cc1nn2cnnc2c(C)c1Cc1ccc(Cl)cc1	-0.8
Cc1cc(C)c(OCCN2CCOCC2)c(Cl)c1	-1.5
CCOc1ccccc1/C=C(/NC(=O)c1ccccc1)C(=O)NC(C)c1ccccc1 (configuration not stated)	0.9
O=C(C(Cc1ccccc1)n1cccc1)N1CCCCC1 (configuration not stated)	-0.2
CCOC(=O)C(NC(=O)CC(C)C)(Nc1sc2c(c1C(N)=O)CCCC2)C(F)(F)F (configuration not stated)	0.1
O=C(O)CSC(C(=O)Nc1ccc(Br)cc1)c1ccc(Cl)cc1 (configuration not stated)	-1.8
O=C(NC(=S)Nc1ccccc1N1CCOCC1)c1ccco1	0.4
CCCCOC(=O)C1C2C=C[C@]3(CN(C(C)c4ccc(OC)cc4)C(=O)[C@H]13)O2 (some centres not stated)	-1.2
CC1=CCP(=O)(c2ccccc2)C1 (configuration not stated)	-1.2
COc1ccc(CN(C)Cc2ccccc2)c(OC)c1OC	-1.7
Cc1cc2nc3n(c2cc1C)CC1CC(C(=O)NCCC(C)C)N(C)C31 (configuration not stated)	-0.7
Nc1cccnc1Sc1cccc(Cl)c1	-1.7
Cc1oc(-c2cccs2)[n+]([O-])c1C	0.9
Cc1cc(S(=O)(=O)Nc2ccccc2C(=O)O)ccc1Cl	-3.7
O=C(Cc1ccccc1)NNC(=S)Nc1ccccc1	7.3
Cc1ccc(NC(=S)NNS(=O)(=O)c2ccc3ccccc3c2)cc1Cl	-1.2
CCOC(=O)c1cnc2ccccc2c1Nc1ccc(C(=O)O)cc1	2.8
OCC[C@@H]1C[C@H](O)[C@@H](O)[C@]2(Cc3ccccc3O2)O1	-0.7
O=C(NCc1ccc2c(c1)OCO2)c1ccc(CSCc2ccccc2Cl)o1	-1.2
COc1ccc(-c2nc(SC)n(C(=O)c3ccco3)n2)cc1	-1.3
O=C(c1cccc(Cl)c1)C1CCCN(Cc2ccc(N3CCNC3=O)cc2)C1 (configuration not stated)	-0.3
Cc1ccc(S(=O)(=O)NC2=NCN(CCOC(=O)c3ccccc3)CN2)cc1	-1.0

Source: PubChem (Broad Institute)

Only part of the results is shown; most or all hits stand in other tables.
